AF4-AF9 inh – inhibitors of human MLL-AF4/AF9 interaction. AlphaScreen, biotin-AF4 peptide binding to FLAG-AF9. inhibition, % at 10 µM. 0.47% of 350,000 active. AID 651704. P42568;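 active = every replicate reaching a set inhibition limit, whatever the replicate mean, cut at about 25% in these data; inconclusive = mean inhibition reaches that limit but some replicates miss it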;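 also: 0% = plate neutral control median and 100% = total signal loss; the record names both 10 and 1 µM as test concentration; the first replicate is given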
Target sequence (P42568 whole entry, looked up): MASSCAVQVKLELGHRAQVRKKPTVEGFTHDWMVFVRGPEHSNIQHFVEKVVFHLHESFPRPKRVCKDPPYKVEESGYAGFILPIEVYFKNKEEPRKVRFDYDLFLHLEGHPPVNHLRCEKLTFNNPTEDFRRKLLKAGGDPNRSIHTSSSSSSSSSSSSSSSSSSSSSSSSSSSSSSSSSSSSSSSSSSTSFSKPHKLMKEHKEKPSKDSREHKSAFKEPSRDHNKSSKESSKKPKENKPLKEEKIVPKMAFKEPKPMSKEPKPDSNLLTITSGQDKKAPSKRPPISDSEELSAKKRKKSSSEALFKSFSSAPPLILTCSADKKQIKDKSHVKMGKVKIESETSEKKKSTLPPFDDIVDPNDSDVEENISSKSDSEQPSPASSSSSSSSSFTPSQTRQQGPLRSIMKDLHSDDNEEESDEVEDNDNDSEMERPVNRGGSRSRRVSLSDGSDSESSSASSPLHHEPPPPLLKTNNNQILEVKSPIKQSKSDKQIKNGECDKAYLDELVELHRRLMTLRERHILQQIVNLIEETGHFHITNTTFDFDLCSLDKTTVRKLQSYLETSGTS
A1 inh – inhibitors of the anti-apoptotic protein A1, read as caspase activation | caspase activation, % (test concentration not listed) | MEF A1-2A-BIM cells, Caspase-Glo 3/7 luminescence, 3 h; percent of clofoctol response, vehicle zero | 0.066% of 330,000 active;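 active = over half of replicate activation scores above 10%, or exactly half above 10 with the replicate mean above 10; inconclusive = replicate mean below 10 yet half the replicates above 10; inactive = over half of replicates below 10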;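 also: wells of about 30 µL received 50 nL stock; many hits fall short of the cut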
Beta cell apopt – blocks beta cell apoptosis | INS-1E cytokine-induced death, ATP luminescence, 48 h; percent of positive-control rescue, neutral wells zero | protection from apoptosis, % (concentration not given with the values) | 0.8% of 300,000 active;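 active = all replicates at 75% or more, or half of them and the mean; inconclusive = half reach 75% but not the mean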;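 also: 0% = cytokine-treated negative control wells and 100% = positive control rescue; higher means more ATP so stronger rescue from cytokine killing; wells of about 40 µL received 100 nL stock; the first replicate is given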
RanGTP-Imp inh – disruptors of Ran-importin-beta complex formation – biochemical, FRET, CFP-Ran, YFP-importin-beta, homogeneous, primary screen; cell-free CFP-Ran/YFP-importin-beta FRET ratio; inhibition, % (test concentration not listed); 1.1% of 300,000 active; AID 2216;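 active = most replicates above 15%; inconclusive = exactly half above 15%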;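 also: 0% = DMSO wells and 100% = Ran loaded with GDP instead of GTP; wells of about 40 µL received 100 nL stock; the first replicate is given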
Ecoli rRNA inh – inhibits bacterial ribosomal RNA function over humanized ribosomes. AID 720706. 1.6% of 350,000 active. E. coli WT GFP vs humanized-ribosome RFP mutants, fluorescence, 24 h; hits give low values; DMSO median 0, no signal -100. GFP signal change (wild-type ribosome), % (concentration not given with the values);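 active = significant combined selectivity score with lowered wild-type GFP, culture density cut under 30%, mutant RFP and density less affected; inactive = any of these conditions unmet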; also: one replicate is shown; some compounds called inactive have numbers as strong as hits
Vif TR-FRET – HIV-1 Vif–A3G interaction blockers – biochemical, TR-FRET, GST-Vif 1-94, biotin-A3G peptide, dose response retest, primary screen (AID 1117319); inhibition, %; hits with a dose series show IC50 in µM; TR-FRET GST-Vif / biotin-A3G peptide binding; higher % means a stronger effect; test concentration not given here; strong numbers were not always called active; 0.57% of 260,000 active;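 active = above the screen mean plus three standard deviations and confirmed in dose response; inconclusive = results disagree or hit not tested in dose response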;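 also: Vif residues 1-94 fused to GST binding biotinylated APOBEC3G peptide 110-148; 0% = full assay without inhibitor and 100% = GST in place of GST-Vif; retest series ran down from 100 µM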
Calb FLC – C. albicans growth modulation with fluconazole | growth inhibition, % (no concentration beside the values) | 0.57% of 300,000 active | C. albicans CaCi-2 (fluconazole-resistant clinical isolate) + fluconazole, Alamar Blue growth, 48 h;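 active = most replicates above 75%; inconclusive = exactly half above 75%; inactive = most below 75%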;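 also: all wells also contain fluconazole at 8 µg/ml as a sub-toxic cotreatment; 0% = median of DMSO wells and 100% = median of geldanamycin control wells; wells of about 8 µL received 7.5 nL stock; the first replicate is given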
T cruzi inh – T. cruzi replication inhibition. 1.4% of 300,000 active. T. cruzi beta-gal in NIH3T3, luminescence, 90 h. inhibition, % (concentration not given with the values);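 active = mean inhibition across valid replicates above about 55%, limit read from the data; inconclusive = mean below that limit but half or more replicates reach it; inactive = mean below it, under half of replicates reach it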;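 also: signal also drops with host cell toxicity which is not excluded here; 0% = plate median of DMSO wells and 100% = zero luminescence signal; higher percent means less beta-gal luminescence so fewer parasites; stock transfer was 50 nL into about 50 µL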
Ecoli rRNA inh OD600 – second read-out of Ecoli rRNA inh, no call of its own (marks repeat the call); OD600 change, %; measured here: OD600 growth;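 optical density of the mix in the first replicate; 0 = DMSO median and -100 = no signal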
Ecoli rRNA inh RFP – further read-out of Ecoli rRNA inh, marked with its call; RFP signal change, %; measured here: RFP humanized mutant strains;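 first replicate; 0 = DMSO median and -100 = no signal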
* = called active by the depositor; ? = inconclusive; · = not tested or not shown; & = joins results of further samples.

SMILES | AF4-AF9 inh | A1 inh | Beta cell apopt | RanGTP-Imp inh | Ecoli rRNA inh | Ecoli rRNA inh OD600 | Ecoli rRNA inh RFP | Vif TR-FRET | Calb FLC | T cruzi inh
CC(C)COc1ccccc1C(=O)NC(CO)C(=O)O (centres undefined) | · | · | 1 | 0.4 | · | · | · | ? | 4 | -27
S=C(NCc1ccc(Cl)cc1)Nc1ccccc1Cl | · | 0.2 | 1 | 1.8 | · | · | · | 0% | -26 | -40
COC(=O)COc1cc2ccccc2cc1C(=O)Nc1ccccc1 | -2.3 | -0.2 | -3 | -1.8 | 2 | 0 | 0.2 | -37% | -4 | -5
CCC/C=C1/CCCOC(C(=O)NCc2ccc(S(C)(=O)=O)cc2)(C(F)(F)F)C1 (centres undefined) | 1.7 | 0.9 | -13 | 1.3 | -2 | -1 | -2.2 | · | -10 | 0
O=C(OCn1nnc2ccccc2c1=O)c1ccco1 | 4.5 | 0.6 | -10 | -0.8 | 2 | 6 | -1.8 | 6% | 5 | 2
CN(C(=O)COC(=O)c1n[nH]c2ccccc12)c1ccccc1 | -0.6 | 0.4 | -3 | -3.7 | -6 | -5 | 5.4 | -6% | 15 | -7
CNC(=O)c1c(NC(=O)C(C)C)sc2c1CCC2 | 4.8 | 1.4 | -2 | -2.3 | 0 | -5 | -0.6 | 22% | -1 | 7
CCNC(=S)N/N=C/c1ccc(C#N)cc1 | -0.3 | 1.4 | 6 | 7.6 | 13 | 5 | 1.6 | ? | -3 | -21
Cc1ccc(NC(=O)C(C)c2ccc(-c3ccccc3)c(F)c2)c(C)c1 (centres undefined) | · | 0.2 | 2 | -1.5 | · | · | · | -11% | -5 | 18
C[C@H](NC(=O)c1nc[nH]c1C(=O)N[C@@H](Cc1ccccc1)C(=O)OCc1ccccc1)C(=O)OCc1ccccc1 | -0.7 | 0.1 | -2 | 0.0 | 12 | 6 | 2.0 | · | 8 | -3
Cc1cccc(NC(=O)CC2NC3CCCCC3NC2=O)c1 (centres undefined) | · | -0.4 | 0 | 0.8 | · | · | · | 75% | 0 | -12
COc1c(O)ccc(/C=N/NC(=O)c2ccc3c(c2)OCCO3)c1[N+](=O)[O-] | -1.4 | -0.7 | -7 | -1.1 | 2 | 2 | -1.3 | -3% | 2 | -4
Cc1ccc2c(c1)S/C(=C/c1ccc[n+](CCO)c1)N2C | -1.1 | -0.5 | 99* | 2.9 | 32 | 3 | -7.7 | 6% | ? | 61*
CC(=O)Nc1ccc(Nc2ccc(S(=O)(=O)C(F)(F)F)cc2[N+](=O)[O-])cc1 | 17 | 0.7 | 1 | -1.6 | 6 | 2 | -1.3 | 24% | 5 | -4
O=C(Cn1nnc(-c2cccs2)n1)N1c2ccccc2Sc2ccc(C(F)(F)F)cc21 | · | -0.3 | 4 | 0.7 | · | · | · | 23% | -18 | 15
CCOC(=O)[C@H]1[C@H]2COc3ccc(OC)cc3[C@@H]2N2C(=O)c3ccc(F)cc3NC(=O)[C@@]12C | 1.9 | 0.5 | -7 | · | -9 | -12 | -7.8 | · | · | ·
CC1(C)Cc2c(cnn2-c2ccc(F)cc2)C(NC(=O)Cn2cncn2)C1 (centres undefined) | -1.0 | 0.7 | · | ? | 7 | 11 | -0.7 | -4% | 2 | -4
COc1ccc(C(=O)CCC(=O)N2CCN(c3cccc(Cl)c3)CC2)cc1 | 3.5 | 0.2 | -4 | -1.4 | -9 | -40 | 0.2 | -6% | 6 | 13
Cc1cc(OC(=O)C2CC2)c([N+](=O)[O-])c(=O)[nH]1 | -1.0 | 0.3 | -5 | 1.8 | 2 | 6 | -1.9 | 8% | -8 | -11
COc1ccc(CN2CCCC(C(=O)N3CCCCC3)C2)cc1 (centres undefined) | -1.8 | 1.1 | -4 | 1.6 | 13 | 9 | 4.4 | 2% | 0 | 27

Quoted from the results shown, two compounds:
SMILES | AF4-AF9 inh | A1 inh | Beta cell apopt | RanGTP-Imp inh | Ecoli rRNA inh | Ecoli rRNA inh OD600 | Ecoli rRNA inh RFP | Vif TR-FRET | Calb FLC | T cruzi inh
Cc1cc(OC(=O)C2CC2)c([N+](=O)[O-])c(=O)[nH]1 | -1.0 | 0.3 | -5 | 1.8 | 2 | 6 | -1.9 | 8% | -8 | -11
COc1ccc(CN2CCCC(C(=O)N3CCCCC3)C2)cc1 (centres undefined) | -1.8 | 1.1 | -4 | 1.6 | 13 | 9 | 4.4 | 2% | 0 | 27

More compounds.
SMILES | AF4-AF9 inh | A1 inh | Beta cell apopt | RanGTP-Imp inh | Ecoli rRNA inh | Ecoli rRNA inh OD600 | Ecoli rRNA inh RFP | Vif TR-FRET | Calb FLC | T cruzi inh
CCc1ccc(C(CNc2nc(C(F)(F)F)nc3ccccc23)N(C)C)cc1 (centres undefined) | 1.0 | 0.9 | 10 | 3.8 | -27 | -66 | -12 | · | 35 | 24
O=C1Nc2ccccc2C1C(C[N+](=O)[O-])c1ccccc1 (centres undefined) | 0.2 | 0.3 | 3 | 4.2 | 4 | 4 | -0.3 | -8% | 2 | 4
CCc1ccc(OCC(=O)Nc2ccc3oc(=O)ccc3c2)cc1 | -1.5 | 0.2 | -4 | -5.7 | 9 | 10 | 0.9 | · | -7 | -3
CN1CCN(S(=O)(=O)c2ccc(NC(=O)c3ccc(Br)o3)cc2)CC1 | · | 0.6 | -3 | 0.9 | · | · | · | 15% | -4 | -1
COC(=O)c1ccc(Oc2nc(NC(C)C)nc(N(C)C)n2)cc1 | · | 1.7 | -8 | 3.1 | · | · | · | 17% | 16 | 5
COc1ccc(C(=O)N(CCN2CCOCC2)CC(=O)NC2CCCC2)cc1OC | · | -0.3 | 0 | -3.5 | · | · | · | -4%&-9% | 2 | -3
O=C(C1CCCN(S(=O)(=O)c2cccc3cccnc23)C1)N1CCN(c2ccccc2F)CC1 (centres undefined) | -9.7 | 0.1 | 2 | 0.9 | -6 | -17 | 4.7 | 8%&-9% | 1 | 15
O=C(NCc1ccc2c(c1)OCO2)Oc1ccccc1 | 1.2 | -0.6 | -6 | -12 | -2 | 7 | -4.3 | -1% | -4 | 6
COc1cccc(C(=O)Nc2cccc(-c3ccc(N4CCOCC4)nn3)c2)c1OC | 10 | -2.6 | 7 | 1.9 | -17 | -19 | 0.9 | 2% | 14 | 7
Cc1ccc(C2(C)NC(=O)N(CC(=O)NC(=O)NC(C)C)C2=O)cc1 (centres undefined) | 1.6 | ? | · | -5.2 | 1 | 5 | -1.0 | · | 1 | -1
Cc1cc2cc(CNC(=O)Nc3cccc(Cl)c3)ccc2n1C | 0.3 | 0.6 | · | ? | -6 | 15 | 47 | 15% | -2 | 44
C[C@H](NC(=O)[C@H](Cc1ccccc1)n1c(=O)[nH]c2ccccc2c1=O)C(=O)N1CCC[C@H]1C(=O)O | -3.4 | -0.2 | -2 | 8.8 | 8 | 9 | 0.0 | · | 2 | -17
Cc1ccc(N2C(=O)C(Cl)=C(N3CCCCCC3)C2=O)cc1 | 19 | -0.4 | 1 | -4.7 | 10 | 12 | -0.6 | · | 15 | 1
COc1ccccc1N(Cc1ccccc1)S(=O)(=O)c1cccc(C(=O)Nc2cc(C)ccn2)c1 | -0.1 | -2.7 | -13 | -2.3 | 1 | 5 | -0.1 | · | -2 | 44
C=CCNC(=S)N(Cc1ccccc1)Cc1ccc(F)cc1 | -4.6 | -0.1 | · | 1.8 | -46 | -64 | -12 | 6% | -1 | -6
CC1(C)CC(NC(=O)C(F)(F)F)CC(C)(C)N1OC(=O)c1ccco1 | · | 0.1 | -7 | -5.9 | · | · | · | -1% | -12 | -38
CC(Sc1nnc(-c2cccs2)n1-c1ccccc1)C(=O)NCc1ccc2c(c1)OCO2 (centres undefined) | · | 0.9 | -13 | -4.3 | · | · | · | 6% | -15 | 6
Cc1ccc(NC(=O)CSCC(=O)N2CCCc3ccccc32)cc1 | 0.4 | -0.1 | -2 | 1.1 | -13 | -29 | 0.7 | -3% | 4 | -12
CCn1c(CSc2ncn[nH]2)nc2cc(C(=O)O)ccc21 | 15 | 0.6 | 3 | 4.4 | 12 | 17 | 15 | 2% | -1 | 0
Cc1ccc(CS(=O)Cc2ccc(C(=O)NCc3ccccc3)o2)cc1 (centres undefined) | -0.9 | 0.2 | -7 | 4.5 | 6 | 5 | -1.9 | · | -1 | -2
Cc1ccccc1-n1c(=O)n(Cc2ccccc2)c(=O)c2[nH]cnc21 | 1.0 | -0.1 | -9 | 0.4 | -4 | -17 | 0.3 | 22% | -16 | -6
CC(C)c1cc(C(=O)N2CCCC(CCC(=O)NCc3ccccc3F)C2)n(C)n1 (centres undefined) | 1.6 | -0.4 | 23 | 4.4 | 2 | -6 | 4.4 | -2% | -6 | 8
Oc1c(Br)cc(Br)cc1/C=N/c1nc2c(s1)CCCC2 | · | 0.0 | -9 | -6.7 | · | · | · | 18% | -2 | 17
COc1ccc(NC(C)=O)cc1NC(C)C(=O)Nc1cccc2ccccc12 (centres undefined) | · | 0.7 | -1 | 2.3 | · | · | · | 12% | 0 | 3
Cc1ccc(OCCn2c(=O)cnc3ccccc32)cc1 | · | 0.7 | 10 | 1.2 | · | · | · | 4% | -2 | -1
O=C(NNC(=O)c1ccc(=O)[nH]c1)c1ccc(NS(=O)(=O)c2cccs2)cc1 | 0.6 | -0.2 | -7 | · | 24 | 8 | 2.6 | -2% | · | ·
O=C(Nc1cccc(O)c1)c1cc(-c2ccco2)on1 | · | -8.8 | -4 | 4.4 | · | · | · | -8% | 7 | 3
O=C(CSc1nnc(Cc2ccsc2)o1)c1ccccc1 | -3.0 | -0.4 | -3 | -4.3 | -14 | -7 | -2.5 | -9% | -9 | 1
O=S(=O)(N1CCCCC1)n1c(Cc2ccccc2)nc2ccccc21 | · | -0.4 | -5 | -0.1 | · | · | · | 0% | -2 | 35
CCOc1ccccc1N1CC(C(=O)Nc2ccc(C(=O)O)cc2)CC1=O (centres undefined) | · | 0.6 | -6 | 1.6 | 17 | 9 | -0.3 | 16% | 10 | -12
CCCCC(=O)Nc1nnc(CCc2ccccc2)s1 | 4.8 | 1.4 | -7 | -2.7 | 8 | 9 | -0.8 | · | -36 | -10
CCOC(=O)c1c(C)n(C)c2ccc(OC)c(NS(=O)(=O)CC)c12 | · | -0.1 | -3 | -2.2 | · | · | · | · | -7 | -6
CC(=O)NNc1ccc(C(F)(F)F)cc1[N+](=O)[O-] | -2.4 | 0.2 | -5 | ? | 4 | -1 | -0.6 | -9% | 20 | -7
Cn1c(C(=O)NCCC2=CCCCC2)cc2c(=O)n3ccccc3nc21 | · | -0.8 | -7 | 7.1 | · | · | · | 21% | -4 | 25
O=C(Nc1cc([N+](=O)[O-])ccc1Cl)C(Sc1ccccc1)c1ccccc1 (centres undefined) | 5.5 | 0.2 | 5 | 0.6 | -2 | -5 | 3.4 | · | -12 | 0
COc1cccc(-c2noc(C3CCCN(C(=O)c4cccc(F)c4)C3)n2)c1 (centres undefined) | 1.5 | -5.7 | -5 | 1.5 | -25 | -27 | -3.0 | · | 11 | 8

A portion of the library; the hit share may differ from the screen's.
